High-throughput results as filed in PubChem.
MLL AF4-AF9 inh = inhibitors of human MLL-AF4/AF9 interaction; P42568; inhibition, % at 10 µM; 350,000 compounds, 0.47% hits; AID 651704; AlphaScreen, biotin-AF4 peptide binding to FLAG-AF9;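 active = every replicate reaching a set inhibition limit, whatever the replicate mean, cut at about 25% in these data; inconclusive = mean inhibition reaches that limit but some replicates miss it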;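 also: 0% = plate neutral control median and 100% = total signal loss; the record names both 10 and 1 µM as test concentration; the first replicate is given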
Target sequence (P42568 whole entry, looked up): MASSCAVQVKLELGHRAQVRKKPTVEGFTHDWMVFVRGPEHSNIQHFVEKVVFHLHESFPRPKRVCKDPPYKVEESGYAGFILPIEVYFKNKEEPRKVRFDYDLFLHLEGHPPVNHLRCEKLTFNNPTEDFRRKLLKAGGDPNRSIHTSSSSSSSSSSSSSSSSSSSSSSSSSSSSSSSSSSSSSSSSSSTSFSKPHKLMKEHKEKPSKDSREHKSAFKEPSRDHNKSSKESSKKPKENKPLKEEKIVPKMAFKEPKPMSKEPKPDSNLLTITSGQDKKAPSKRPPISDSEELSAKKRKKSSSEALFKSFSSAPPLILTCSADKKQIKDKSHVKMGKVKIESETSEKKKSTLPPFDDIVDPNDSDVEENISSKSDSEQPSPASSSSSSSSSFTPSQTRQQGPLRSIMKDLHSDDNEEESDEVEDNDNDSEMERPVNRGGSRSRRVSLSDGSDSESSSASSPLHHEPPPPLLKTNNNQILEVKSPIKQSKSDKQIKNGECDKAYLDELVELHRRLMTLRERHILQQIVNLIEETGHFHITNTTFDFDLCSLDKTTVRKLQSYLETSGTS
Vif A3G = HIV-1 Vif–A3G interaction blockers – biochemical, TR-FRET, GST-Vif 1-94, biotin-A3G peptide, dose response retest, primary screen (AID 1117319). TR-FRET GST-Vif / biotin-A3G peptide binding; higher % means a stronger effect; test concentration not given here; strong numbers were not always called active. inhibition, %, or IC50 in µM where a hit was titrated. 260,000 compounds, 0.57% hits;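 active = above the screen mean plus three standard deviations and confirmed in dose response; inconclusive = results disagree or hit not tested in dose response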;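 also: Vif residues 1-94 fused to GST binding biotinylated APOBEC3G peptide 110-148; 0% = full assay without inhibitor and 100% = GST in place of GST-Vif; retest series ran down from 100 µM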
* marks the source's active call; other numbers are inactive results; ? = inconclusive; & = joins results of further samples. Some of the compounds tested. The share of hits here may be higher or lower than overall.

Below each compound: Vif A3G, MLL AF4-AF9 inh
CC(=O)Nc1ccc(CCCCc2ccc(NC(C)=O)cc2)cc1
  4.0%, -2.5
O=C(c1ccccc1)c1ccc(N2CCOCC2)cc1
  3.9%, -3.0
COc1cc(NC(=O)CSc2nnc3ccccn23)cc(OC)c1OC
  -5.6%, 1.1
CCOC(=O)Nc1ccc2c(c1)Cc1cc([N+](=O)[O-])ccc1-2
  2.3%, -0.4
CC(C)(C)OC(=O)N(CCc1ccccc1)Cc1ccccc1OCc1cccc(NC(=O)C2CCCC2)c1
  1.1%, -1.5
Cc1cc(NCC(=O)Nc2ccc(C)c(S(=O)(=O)N3CCOCC3)c2)ccc1Br
  -2.2%, 2.2
Cc1occc1C(=O)NNC(=O)CN1C(=O)NC2(CCCCC2)C1=O
  0.0%, -1.1
COc1ccccc1CNC(=O)C(=O)c1cn(CC(=O)N2CCCCC2)c2ccccc12
  -12.8%, 1.6
Cc1ccc(-c2noc(CC(=O)c3ccc([N+](=O)[O-])cc3)n2)cc1
  -5.3%, 0.3
CC1(c2nc3ccccc3cc2C#N)OCCO1
  5.0%, -1.9
Cc1ccc([C@H]2C[C@@H](n3cc(COC(=O)c4ccccc4)nn3)[C@H](O)CN2Cc2cccs2)cc1
  3.9%, -4.8
Cc1cccc(-c2nnc(-c3cccc4ccccc34)o2)c1
  1.0%, -0.2
CCN(CC)C(=O)[C@H]1CC(CC(=O)NCc2ccco2)C(=O)N2CCc3c([nH]c4ccc(OC)cc34)[C@]12C (some centres undefined)
  -2.1%, 2.3
COC1OC2COC(c3ccccc3)OC2C2OC12 (centres undefined)
  -1.6%, -1.0
CCCCCCN1C(=O)CC(NC(=O)OCC2c3ccccc3-c3ccccc32)C/C=C\C1C(C)C (centres undefined)
  1.5%, -2.7
Cc1ccc(S(=O)(=O)N2CCCCC2)cc1NC(=O)c1ccncc1
  -2.7%, -0.9
CCCCN1C(=O)C(C(=O)OCC)CC2=C1CCCC2=O (centres undefined)
  -5.6%, -5.3
COc1ccccc1NC(=O)c1ccccc1SCC(=O)N1CCCC1
  0.9%, 0.4
O=C(NCCOc1ccccc1)c1ccccc1F
  -3.3%, 0.0
Cc1cc(C)n2c(=O)[nH]nc2c1
  0.8%, 4.4
CNc1ncnc2c1cnn2C1CCCCO1 (centres undefined)
  -4.8%, -2.7
CSC[C@H]1CN(c2ccc(Br)cc2)C(=O)[C@@H]1CC(=O)Nc1ccc(Br)cc1
  -4.7%, -0.9
COc1ccc(C2CC(=O)CCN2S(=O)(=O)c2ccc(C)cc2)cc1 (centres undefined)
  -4.6%, -5.8
CCOc1ccc(NC(=O)COC(=O)C2COc3ccccc3O2)cc1 (centres undefined)
  -2.5%, -2.3
COc1ccc(-c2ccn(-c3cccc(F)n3)n2)cc1
  5.2%, 3.4
COc1ccc(C(=O)N/C(=C\c2ccc(Cl)cc2)C(=O)NCc2ccncc2)cc1
  2.1%, 0.7
C=CCOc1ccc(C[C@H](N)C(=O)NC[C@H]2O[C@@H](n3cc(C)c(=O)[nH]c3=O)C[C@@H]2O)cc1
  0.7%, 1.5
NC(=O)C1CCN(C(=O)CNC(=O)c2ccc(F)cc2)CC1
  -6.7%, -4.6
COc1ccc(C=C2SC(=O)NC2=O)cc1OC
  2.7%, -0.1
COc1cc(C=NO)nc(-c2ccccn2)c1
  -5.5%, -1.3

Below each compound: Vif A3G, MLL AF4-AF9 inh
Nc1cc2c(cc1Cl)-c1ccccc1C2=NO
  -8.2%, 7.2
CC(Sc1ccc(S(=O)(=O)N2CCN(C)CC2)cn1)C(=O)NC1CCCC(C)C1C (centres undefined)
  0.9%, -0.6
CCCN=C1N(CC)C[C@@H]2[C@@H]3C(=O)N(C)C(=O)[C@@H]3[C@](CC)(C(=O)OC)N12
  -6.7%, -2.1
CCc1cccc(C)c1NC(=O)COC(=O)C1CC(=O)N(CCc2ccc(OC)c(OC)c2)C1 (centres undefined)
  1.4%, -10.3
CN(CCc1ccccc1)C(=O)c1ccc(NC(=O)Cc2ccc(NC(=O)C3CCN(C(=O)c4ccccc4)CC3)cc2)cc1
  -1.1%, 31.1*
CC1=CC[C@@]23CCCN2C(=O)CCC[C@H]3C1
  -8.1%, -27.5
O=C1C=C(c2ccccc2)C(c2ccccc2)C1O (centres undefined)
  -8.2%, -2.0
O=C(c1ccc(N2CCCC2)c([N+](=O)[O-])c1)N1CCN(S(=O)(=O)c2ccccc2)CC1
  4.1%, -4.5
CCN(C[C@H]1N[C@@](CC)(C(=O)OC)[C@H]2C(=O)N(C)C(=O)[C@@H]12)C(=O)c1ccccc1
  5.3%, 0.2
Nc1nc(-c2ccc([N+](=O)[O-])cc2)cc(=O)[nH]1
  15.3%, 20.1
CCN(CC)C(=O)[C@H]1C[C@H](CC(=O)NC/C=C(\C)CCC=C(C)C)C(=O)N2CCc3c([nH]c4cc(-c5ccco5)ccc34)[C@]12C
  -6.9%, 1.1
COC(=O)C=C1CCC2C3CCC4=CC(=O)CCC4(C)C3C(=O)CC12C (centres undefined)
  -2.5%, -2.5
COc1ccc(Oc2c(OC)cc([N+](=O)[O-])c3ncccc23)cc1
  0.9%, 8.9
O=c1[nH]nnc2c1cnn2-c1ccccc1
  -4.1%, -1.3
C[C@@H](CO)NC(=O)c1[nH]cnc1C(=O)Nc1cccc(Cl)c1
  -10.2%, 0.1
CC(C)=CCc1c2c(c3occ(-c4ccc(O)c(O)c4)c(=O)c3c1O)C=CC(C)(C)O2
  16.6%, ?
O=C(c1ccco1)N1CCN(C(=O)c2ccc(Br)o2)CC1
  -2.3%, 0.2
Cc1ccc(S(=O)(=O)N(C)C[C@@H]2Oc3ncc(C#CCC(C)C)cc3C(=O)N([C@H](C)CO)C[C@H]2C)cc1
  8.8%, 4.3&-0.8&0.4
COc1ccc(NC(=O)CN2C(=O)NC(C)(Cc3ccc(OC)c(OC)c3)C2=O)cc1 (centres undefined)
  -6.3%, -3.2
CC(=O)N1C[C@H]2CON(C)[C@H]2C[C@H]1c1ccc(-c2cccnc2)cc1
  -2.8%, -7.8
CC(c1ccc2ccccc2c1)c1ccccc1C(=O)O (centres undefined)
  -3.8%, -5.6
COc1cc2nc(CN3CCN(S(=O)(=O)c4ccccc4[N+](=O)[O-])CC3)[nH]c(=O)c2cc1OC
  2.5%, -1.2
O=[N+]([O-])c1nc2ccccc2[nH]1
  -0.7%, -0.7
COc1ccc(S(=O)(=O)Nc2ccc(C)c(S(=O)(=O)N3CCOCC3)c2)cc1[N+](=O)[O-]
  -0.8%, 1.3
COC(=O)[C@H](Cc1ccccc1)N1C/C=C\COc2c(Cl)cc(Cl)cc2S1(=O)=O
  19.5%, -1.1
C[C@@H]1CN([C@@H](C)CO)C(=O)CCCn2nncc2CO[C@@H]1CN(C)C(=O)Nc1cccc2ccccc12
  -2.6%, 1.2&-1.5
c1ccc(-c2c[nH]c(-c3ccccc3)c2)cc1
  -7.0%, 8.6
CSc1nc(SCc2ccccc2)[nH]c(=O)n1
  5.4%, -1.1
FC(F)(F)c1nc(=S)c2ccccc2[nH]1
  -65.6%, -3.6
CCOC(=O)CN(C(=O)c1snc(C(N)=O)c1N)C(C(=O)NCCC(C)C)c1ccc(C)cc1 (centres undefined)
  1.3%, 1.5

3 compounds out of the list, ordered by count of non-hydrogen atoms, lowest first.
Below each compound: Vif A3G, MLL AF4-AF9 inh
O=[N+]([O-])c1nc2ccccc2[nH]1
  -0.7%, -0.7
O=c1[nH]nnc2c1cnn2-c1ccccc1
  -4.1%, -1.3
Nc1nc(-c2ccc([N+](=O)[O-])cc2)cc(=O)[nH]1
  15.3%, 20.1

Pulled one by one from above:
Below each compound: Vif A3G, MLL AF4-AF9 inh
CC(=O)N1C[C@H]2CON(C)[C@H]2C[C@H]1c1ccc(-c2cccnc2)cc1
  -2.8%, -7.8
COc1cc(NC(=O)CSc2nnc3ccccn23)cc(OC)c1OC
  -5.6%, 1.1
CN(CCc1ccccc1)C(=O)c1ccc(NC(=O)Cc2ccc(NC(=O)C3CCN(C(=O)c4ccccc4)CC3)cc2)cc1
  -1.1%, 31.1*
CSc1nc(SCc2ccccc2)[nH]c(=O)n1
  5.4%, -1.1
COc1ccc(C2CC(=O)CCN2S(=O)(=O)c2ccc(C)cc2)cc1 (centres undefined)
  -4.6%, -5.8

Following part.
Below each compound: Vif A3G, MLL AF4-AF9 inh
CCOC(=O)C1=CN(C(C)C)CCC1=O
  2.5%, 0.8
CC(NS(=O)(=O)c1ccc(Br)cc1F)[C@H](O)c1ccccc1 (some centres undefined)
  -6.6%, -3.4
COc1ccc(NC(=O)N(C)[C@H]2C[C@H]3c4[nH]c5ccc(-c6ccc7c(c6)OCO7)cc5c4CCN3C[C@H]2[C@H](C)O)cc1
  -3.8%, 8.2
Cc1ccccc1Oc1ccc2c(c1)[C@@H]1C[C@H](N(C)C(=O)NC3CCCCC3)[C@H]([C@H](C)O)C(=O)N1CC2
  0.1%, 0.8
COc1ccc(C(=O)c2ccc(OC)c(OC)c2OC)cc1
  -7.5%, -1.4
CCCc1c(C(=O)N/N=C(\C)c2ccccn2)nnn1-c1nonc1N
  -5.3%, -8.2
O=C(NCCc1c[nH]c2ccccc12)c1ccc([N+](=O)[O-])o1
  -2.0%, 1.3
CC(C)C1C(=O)N(Cc2cn(CCC3OCCO3)nn2)CCS(=O)(=O)N1Cc1ccc(-c2ccccc2)cc1 (centres undefined)
  4.6%, -2.2
O=C(NCCOc1ccccc1)[C@@H]1CCCN1C(=O)c1cccs1
  -1.7%, 7.8
CC(C)c1cc(C(=O)N(C)C2CCCN(Cc3ccccc3F)C2)n(C)n1 (centres undefined)
  -0.3%, 3.2
COc1cc2c3nnc(-c4ccc(F)cc4)c-3cn(Cc3ccccc3F)c2cc1OC
  0.3%, 3.0
CC(OC(=O)Nc1ccccc1)C(=O)OC1CCCCC1 (centres undefined)
  4.9%, 2.1
CCOC(=O)C1=CN(Cc2cccc(F)c2)S(=O)(=O)N(CC)C1c1ccccc1 (centres undefined)
  -7.1%, -2.4
CCOc1ccc(NC(=O)c2ccccc2NC(=O)CN2CCCCCC2)cc1
  -2.1%, -0.3
CN(Cc1ccc(F)cc1)S(=O)(=O)c1ccc2[nH]c(=O)[nH]c2c1
  0.0%, -8.3
CCOC(=O)c1ccccc1OC(=O)Oc1ccccc1C(=O)OCC
  -3.3%, -3.9
CN(C(=O)c1cccc(NC(=O)Cc2ccc(NC(=O)C3CCN(C(=O)C4CCC4)CC3)cc2)c1)C1CCCCC1
  0.3%, -8.5
N#CC1C(=O)NC(=O)CC12CCCCC2 (centres undefined)
  3.5%, -1.0
Cc1ccc([C@H]2C[C@@H](n3cc(-c4ccc(F)cc4)nn3)[C@H](O)CN2C(=O)C2CCCCC2)cc1
  10.5%, -4.1
Cc1ccc(S(=O)C(c2ccccc2)c2ccccc2)cc1 (centres undefined)
  -10.4%, -1.2
Cc1ccccc1S(=O)(=O)N(C)C[C@@H]1OCc2cnnn2CCCC(=O)N([C@@H](C)CO)C[C@H]1C
  -4.0%, -5.3&1.6
O=C(NCCCN1CCOCC1)c1cc(S(=O)(=O)N2CCCCC2)ccc1Cl
  -4.6%, -1.9
Cc1cccc(NC(=O)c2sc3nc(C)nc(N4CCOCC4)c3c2C)c1
  -1.8%, -7.4
C[C@@H](N)C(=O)N[C@H]1CCC2C3CC=C4C[C@@H](O)CC[C@]4(C)C3CC[C@@]21C (some centres undefined)
  5.3%, -2.1
O=C(Cn1ccc(=O)[nH]c1=O)c1ccc([N+](=O)[O-])o1
  -1.7%, -3.3
COC(=O)C1=C(C)NC(C)=C(C(=O)OC)C1C(=O)OCc1nnc(-c2ccccc2Cl)o1
  2.4%, 0.0
COc1ccc(CC(=O)Nc2cc(F)ccc2F)cc1S(=O)(=O)N1CCOCC1
  -7.9%, -2.1
O=C(NCC(=O)N1CCCC(C(F)(F)F)C1)c1cccs1 (centres undefined)
  -1.4%, 32.5*
COC(=O)N(C)C[C@@H]1OCc2cn(nn2)CCCC(=O)N([C@@H](C)CO)C[C@H]1C
  8.8%, -2.6&0.0&-2.9
Cc1c(N=C2C=C(Br)C(=O)C(Br)=C2)c(=O)n(-c2ccccc2)n1C
  14.1µM*, 6.4

Below each compound: Vif A3G, MLL AF4-AF9 inh
CC(C)(C)C(=O)Nc1ccc(C(=O)COC(=O)C2=COCCO2)cc1
  -7.3%, -12.4
CC(=NNc1ccc2ccccc2n1)c1ccccc1O
  -1.8%, 0.6
COc1cccc(-c2cc3nc(-c4ccccc4)cc(N4CCN(C(=O)c5ccoc5)CC4)n3n2)c1
  -2.6%, -6.8
C[C@H](CO)N1C[C@H](C)[C@@H](CN(C)C(=O)Nc2ccc(C(F)(F)F)cc2)Oc2ccc(NC(=O)Nc3ccc4c(c3)OCO4)cc2C1=O
  5.9%, 8.8&2.5
C=CCn1c(=O)/c(=C/c2ccsc2)s/c1=C(\C#N)C(=O)NCCN1CCOCC1
  1.6%, 4.0
O=C(O)c1ccccc1-c1ccc([N+](=O)[O-])cc1Cl
  7.9%, 2.1
O=C(CC(=O)c1ccccn1)c1ccccc1
  -6.9%, 0.4
CCN(CC)C(=O)C1=C(C)N(Cc2ccc(C(C)(C)C)cc2)C(=O)C(CC(=O)NCCc2ccccn2)C1 (centres undefined)
  -6.9%, -2.7
CS(=O)(=O)Nc1ccc2c(c1)[C@@H]1C[C@@H](CC(=O)NCc3cccnc3)O[C@H](CO)[C@@H]1O2
  1.0%, 3.5&-1.5
CC(CCC(=O)NN)C1CCC2C3CCC4CC(O)CCC4(C)C3CCC12C (centres undefined)
  -1.7%, -4.1
